Assay outcomes as filed in PubChem.
Rango complex inh – inhibitors of Rango-importin beta complex formation; Potency, µM (titrated, usually from 92.2 µM), without a hit: at the top dose inhibition of complex formation; Rango CFP/YFP FRET sensor + importin beta, 45 min; Q14974; hit rate 0.031% among 340,000; active = rising FRET ratio curve, often small or poorly fitted; inconclusive = mostly compound fluorescence or quenching in the first reads; inactive = flat curves in all reads;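 further: potency means the concentration at half of the fitted maximal effect; 0% = DMSO wells and 100% = buffer wells lacking importin beta; nearly all actives have a fitted effect of over 15% in size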
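Inhibition scored from the CFP 486 nm/YFP 530 nm FRET ratio 45 min after adding 0.125 microM importin beta to 50 nM Rango biosensor preincubated 5 min with compound (room temperature, PBS with DTT, Tween-20, BSA). No-importin wells as positive control.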
miR-21 FLuc – miR-21 reporter, rising signal; AID 2288; HeLa miR-21 FLuc reporter, luciferase, 48 h; 340,000 tested, under 10 active; Potency, µM (top dose mostly 38.3 µM), for inactives: at the highest dose reporter change, positive = more light; active = well fitted rising curve with a large enough effect; inconclusive = small, poorly fitted or top-dose-only effect; inactive = no such curve, though single readings can be large or run the other way;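 further: % of control where 0% means no effect; miR-21 action dims this reporter so a rising signal means less miR-21 action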
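HeLa cells endogenously expressing miR-21, stably carrying CMV-driven firefly luciferase with a downstream miR-21 binding site, 2000 cells/well. Titrations up to approximately 40 uM, 48 hours; luciferase luminescence read.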
Rango release inh – prevents RanGTP from dissociating the Rango-importin beta complex | hit rate 0.071% among 340,000 | Potency, µM (series often up to 46.1 µM), inactives show at the top dose activity change, negative = inhibition | Biochemical FRET Rango-importin beta, RanGTP-induced dissociation; active means falling FRET ratio curve, often poorly fitted, with flat reads before Ran was added; inconclusive means other falling curves, or compound fluorescence or quenching; inactive means flat or rising ratio curve;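 further: potency means the concentration at half of the fitted maximal effect; % of control where 0% means no effect; nearly all actives have a fitted effect of over 45% in size; -100% = wells without RanGTP and RCC1; the record marks most hits as doubtful in a second field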
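Two FRET readings bracket the reaction: one 5 min after compound meets Rango–importin beta, another 45 min after RanGTP-RCC1 (0.6 uM Ran, 0.2 uM RCC1, 2 mM GTP) is added. Only the second defines inhibition.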
GLA inh pH 4.5 – blocks human alpha-galactosidase A at pH 4.5. purified enzyme, 4-MU-alpha-Gal fluorescence, pH 4.5. P06280. activity change, negative = inhibition, % at 105 µM. 230,000 tested, under 10 active; inconclusive = small, poorly fitted or top-dose-only inhibition, or a rising curve; inactive = flat fitted curve, though single readings scatter; no compound was filed as active;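 further: 0% = full activity with enzyme and -100% = basal without enzyme; dose as in the result columns while the protocol names 77 µM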
Target sequence (P06280 whole entry, looked up): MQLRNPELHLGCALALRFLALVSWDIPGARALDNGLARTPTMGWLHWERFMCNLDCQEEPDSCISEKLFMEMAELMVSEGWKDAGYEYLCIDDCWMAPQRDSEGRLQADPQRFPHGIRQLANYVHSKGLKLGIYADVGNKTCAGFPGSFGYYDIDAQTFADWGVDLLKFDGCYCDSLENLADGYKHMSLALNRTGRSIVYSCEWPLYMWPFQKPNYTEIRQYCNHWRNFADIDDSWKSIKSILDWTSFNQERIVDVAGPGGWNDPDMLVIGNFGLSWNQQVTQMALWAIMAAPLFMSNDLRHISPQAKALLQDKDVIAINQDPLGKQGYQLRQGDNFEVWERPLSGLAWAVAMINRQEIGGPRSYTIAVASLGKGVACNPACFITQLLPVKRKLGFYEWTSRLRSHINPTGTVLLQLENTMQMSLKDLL
* = called active by the depositor; u = inconclusive; x = not tested or not shown; & = joins results of further samples.

Rango complex inh	miR-21 FLuc	Rango release inh	GLA inh pH 4.5	compound
5.3%	-6%	10%	2	COCCNC(=O)CS(=O)(=O)Cc1nc(-c2ccc(C)cc2)oc1C
-2.4%	-1%	-1%	-6	CSC1=NCCN1C(=O)COc1ccc2ccccc2c1
-0.3%	1%	-23%	-9	FC(F)(F)c1cccc(Cn2cnc(NC(=S)NCCc3ccccc3)n2)c1
u	8%	13%	0	CCOC(=O)C1CCCN(C(=O)c2ccc(Cl)c(S(=O)(=O)N3CCCCCC3)c2)C1 (stereo not given)
4.0%	20%	-6%	9	O=C(/C=C\c1ccccc1OC(=O)c1ccccc1F)c1cc2ccccc2o1
0.1%	-7%	20%	-24	O=C1Nc2ccc(S(=O)(=O)N3CCCC3)c3ccc(S(=O)(=O)N4CCCC4)c1c23
0.6%	-8%	7%	4	COc1ccccc1C/C(N)=N/OC(=O)COc1ccc2ccccc2c1
4.9%	-1%	28%	-12	O=C1CN(C(=O)CNCc2ccc(Cl)cc2)c2ccccc2N1
-0.4%	-3%	-6%	x	O=C(N/C(=C/c1cccc([N+](=O)[O-])c1)C(=O)N1CCCCC1)c1ccco1
3.6%	1%	-3%	5	Cc1nnn(C23C[C@@H]4C[C@@H](CC(C(=O)N5CCN(c6ccccc6)CC5)(C4)C2)C3)n1
0.4%	-1%	4%	x	O=C(NCCc1ccccc1Cl)C1CCC(=O)N(CC2CCCCC2)C1 (stereo not given)
-0.5%	25%	38%	x	O=C1/C(=C\c2ccccc2)SC(=S)N1CCC(=O)N1CCCCC1CCO (stereo not given)
3.0%	1%	2%	1	Cc1cc(C)c(NC(=O)Cn2nc(-c3ccccc3)nc2-c2ccccc2)c(C)c1
-1.1%	-9%	-3%	7	COc1ccc(OC)c(S(=O)(=O)Nc2ccccc2C(=O)O)c1
3.7%	14%	4%	-1	Cc1ccc(N(Cc2ccco2)C(=O)c2ccc(N3CCCCC3)c([N+](=O)[O-])c2)cc1

Another view of some results above:
| mol | Rango complex inh | miR-21 FLuc | Rango release inh | GLA inh pH 4.5 |
| --- | --- | --- | --- | --- |
| FC(F)(F)c1cccc(Cn2cnc(NC(=S)NCCc3ccccc3)n2)c1 | -0.3% | 1% | -23% | -9 |
| CCOC(=O)C1CCCN(C(=O)c2ccc(Cl)c(S(=O)(=O)N3CCCCCC3)c2)C1 (stereo not given) | u | 8% | 13% | 0 |

Continued.
Rango complex inh	miR-21 FLuc	Rango release inh	GLA inh pH 4.5	compound
0.6%	-1%	16%	7	O=C(NCc1ccccc1)c1ccc(CS(=O)(=O)Cc2ccccc2F)o1
-2.5%	x	-9%	x	Cc1ccc([C@H]2C(C(=O)O)=CC[C@@H](c3ccc(C)cc3)N2S(=O)(=O)c2ccccc2C)cc1
-1.6%	1%	9%	x	Cc1ccccc1N1CCN(C2CCCN(C(=O)CCC(=O)N(C)C)C2)CC1 (stereo not given)
u	2%	u	x	CCC(=O)Nc1nn(CC(C)C)c2nc3ccc(C)cc3cc12
x	1%	x	7	O=C(CN1C(=O)NC2NC(=O)NC21)N/N=C/c1ccccc1F (stereo not given)
-0.7%	-7%	-17%	-5	CC(C)(C)C(=O)NC1CCN(S(C)(=O)=O)CC1
0.1%	x	21%	x	CCCCC(CC)C(=O)Nc1cc(C(=O)NCc2ccc(C)cc2)ccc1N1CCC2(CC1)CC(c1cccc(Br)c1)=NO2 (stereo not given)
4.2%	-3%	-9%	-6	O=C(CS(=O)(=O)c1c[nH]c2ccccc12)NC1CCCCC1
0.0%	x	-21%	x	Cc1cccc(NC(=O)CNC(=O)c2ccc(-n3cncn3)c([N+](=O)[O-])c2)c1C
-0.1%	-5%	3%	-2	Cc1nnc(NC(=O)CSc2cn(CCNC(=O)c3ccccc3)c3ccccc23)s1
2.5%	0%	0%	2	COc1ccc(CNC(=O)/C(C)=C\C(=O)O)cc1
0.1%	-14%	14%	-2	CN(C)CCOCCOc1ccc(Cl)c2ccccc12
0.5%	23%	-2%	-18	CCc1ccc(N=CC23c4ccccc4C(c4ccccc42)C2C(=O)N(c4ccc(OC)cc4)C(=O)C23)cc1 (stereo not given)
0.9%	28%	32%	-18	CC(=O)NC1=NN(C(C)=O)C(C)(c2cccs2)S1 (stereo not given)
1.5%	10%	1%	-8	COc1ccc(N(CC(=O)Nc2cccc(N(C)S(C)(=O)=O)c2)S(=O)(=O)c2ccc(F)cc2)cc1
x	-4%	x	3	COc1ccc(C2c3c(ccc4ccccc34)Oc3ncn4nc(Cc5ccc(OC)c(OC)c5)nc4c32)cc1 (stereo not given)
4.2%	4%	16%	2	CCCn1nnnc1SCC(=O)NCc1ccc2c(c1)OCO2
u	-14%	u	-3	CCC1c2ccc(C)n2CCN1C(=O)Nc1cc(Cl)ccc1OC (stereo not given)
-2.7%	-1%	11%	11	Cc1nnc(SCC(=O)N(C(C)C)C(C)C)nc1C
-2.8%	-4%	-1%	x	COC(=O)c1ccc(OCC(O)CN2C(=O)c3ccccc3C2=O)cc1 (stereo not given)
0.2%	0%	14%	x	CN(C)C(CNC(=O)CCc1c[nH]c2ccccc12)c1ccccc1 (stereo not given)
-1.1%	4%	-10%	x	Cc1ccccc1CN1CCC(n2nccc2NC(=O)c2cccnc2)CC1
3.2%	x	19%	x	CCc1cc(C(=O)Nc2cc(S(=O)(=O)N(CC)CC)ccc2N2CCN(C)CC2)sc1C
-0.9%	x	12%	x	Cn1c(N)c(C(=O)COC(=O)CNC(=O)c2ccc(Cl)cc2Cl)c(=O)n(C)c1=O
-0.8%	-5%	-9%	7	O=C(CSc1nnc(-c2ccc(Br)cc2)n1CCc1ccccc1)NC1CCS(=O)(=O)C1 (stereo not given)
u	0%	-12%	-1	O=C(c1ccc(OC2CCN(C(=O)C3CC3)CC2)cc1)N(CCO)Cc1ccccc1
9.2%	1%	-1%	-1	COc1ccc2c(c1)-c1c(sn(-c3ccccc3)c1=S)C(C)(C)N2
-3.0%	-28%	-8%	-6	COc1cccc(Cn2nnc(C(=O)Nc3ccc(C)cc3)c2N)c1
-0.4%	-2%	8%	7	COC(=O)c1oc2ccc(Br)cc2c1NC(=O)CCCN1C(=O)c2ccccc2C1=O
-0.5%	-7%	-9%	3	CC1(C)C2CCC1(C)C(OC(=O)CC(=O)O)C2 (stereo not given)
-1.0%	-5%	-5%	-1	Cc1cccc2cc(CN(CCN3CCOCC3)C(=O)Nc3ccccc3F)c(=O)[nH]c12
-1.5%	-1%	38%	-8	CON/C=C(\C=Nc1ccc(C(F)(F)F)cc1)c1ncc(C(F)(F)F)cc1Cl
0.0%	-20%	2%	3	c1ccc(COc2nsnc2N2CCOCC2)cc1
-4.6%	-3%	9%	-8	COc1cc(C2=NOC(C(=O)N3CCCCCC3)C2)cc(OC)c1OC (stereo not given)
u	-62%	1%	7	Cc1ccc(N/C=C2/Sc3ccccc3NC2=O)cc1
1.7%	-15%	0%	7	O=C(O)c1ccc(CSc2nnc(-c3cccnc3)n2-c2ccc(Br)cc2)cc1
-2.8%	21%	3%	x	CCCCC(=O)NC(c1ccc(C(C)C)cc1)c1ccc2cccnc2c1O (stereo not given)
6.0%	6%	-8%	-14	CCOC(=O)CCc1c(C(=O)OCC)[nH]c(CC)c1C(=O)OCc1ccccc1
u	-4%	-17%	8	CCC(C)(C)n1nnnc1C(c1cc2cc(C)ccc2[nH]c1=O)N1CCCc2ccccc21 (stereo not given)
-3.8%	0%	15%	u	COC(=O)c1ccc(C(=O)OC)c(=O)[nH]1
4.9%	-67%	-18%	-4	Cc1oncc1-c1csc(-c2ccccc2)n1
1.8%	-9%	12%	1	Cc1cc([N+](=O)[O-])nn1CCCC(=O)NC(C)c1ccccc1 (stereo not given)
7.9%	-3%	-9%	3	O=C(Nc1ccccc1Br)C1CCN(C(=O)Cc2ccccc2)CC1
-0.3%	-7%	6%	x	CCn1c(=O)c(=O)[nH]c2cc(C(=O)N(C)Cc3ccc(OC)c(F)c3)ccc21
2.3%	-2%	20%	-11	CC(=O)N1CCC(=NNc2ccc(S(=O)(=O)N3CCOCC3)cc2[N+](=O)[O-])CC1

Arranged by value in GLA inh pH 4.5 (low to high): some entries from above.
SMILES	Rango complex inh	miR-21 FLuc	Rango release inh	GLA inh pH 4.5
CCOC(=O)CCc1c(C(=O)OCC)[nH]c(CC)c1C(=O)OCc1ccccc1	6.0%	6%	-8%	-14
COc1cc(C2=NOC(C(=O)N3CCCCCC3)C2)cc(OC)c1OC (stereo not given)	-4.6%	-3%	9%	-8
Cc1oncc1-c1csc(-c2ccccc2)n1	4.9%	-67%	-18%	-4
Cc1cccc2cc(CN(CCN3CCOCC3)C(=O)Nc3ccccc3F)c(=O)[nH]c12	-1.0%	-5%	-5%	-1
O=C(O)c1ccc(CSc2nnc(-c3cccnc3)n2-c2ccc(Br)cc2)cc1	1.7%	-15%	0%	7

The list continues.
Rango complex inh	miR-21 FLuc	Rango release inh	GLA inh pH 4.5	compound
-0.1%	-56%	4%	0	N#Cc1nc(-c2ccccc2F)oc1NCCc1ccccc1
1.1%	x	22%	x	CC(OC(=O)/C=C/c1ccccc1)C(=O)NC1CCCCC1C (stereo not given)
u	3%	u	1	CCOC(=O)C(=O)NCc1ccc(/C=C2/N=C(C)C(C(=O)OCC)=C2O)o1
1.8%	-1%	6%	0	CC1(C)Nc2ccccc2N(CC(=O)N2CCCCC2)C1=O
u	-53%	-7%	-12	Cc1ccc(NC(=O)/C(C#N)=C/c2cccs2)c(C)c1
-0.7%	3%	20%	x	O=C(COc1ccc(Br)cc1)NCCCNC(=O)c1cnccn1
-1.2%	-13%	-1%	0	Cc1nn(C)cc1CNC(=O)C1(C)CC1(Cl)Cl (stereo not given)
4.0%	-6%	-10%	1	CC(C)CC1NC(=O)N(CC(=O)N2CCCc3ccccc32)C1=O (stereo not given)
-2.6%	-2%	-6%	5	CC(=O)O/C(=C\c1cn(C(C)=O)c2ccccc12)C(=O)O
u	-17%	u	0	COC(=O)C1Cc2c([nH]c3ccccc23)CN1 (stereo not given)
-2.9%	-2%	-9%	3	COc1ccc2c(c1)C(C1=C(O)CC(C)(C)CC1=O)C1=C(CC(C)(C)CC1=O)O2 (stereo not given)
-0.3%	-7%	-2%	x	C=Cc1ccc(C(=O)N2CCCC(Nc3ccc4c(c3)OCCO4)C2)cc1 (stereo not given)
0.9%	7%	-13%	x	O=C(CCCN1C(=O)/C(=C/c2cccc(Br)c2)SC1=S)NCCCN1CCOCC1
0.8%	-17%	8%	8	CN1CCCN(Cc2nc(-c3ccc(Cl)cc3)no2)CC1
-1.7%	-10%&14%	5%	x	C=Cc1ccc(Cn2nc(-c3ccc(C)cc3)ccc2=O)cc1
2.3%	-8%	0%	4	COc1ccccc1-n1cnc2cc(NCc3ccco3)ccc21
-5.7%	x	3%	x	Cc1ccn2c(C(=O)N/N=C\c3ccccc3[N+](=O)[O-])c(C)nc2c1
0.1%	29%	2%	x	CC(C)C[C@@H](C(=O)NC1CCN(Cc2ccccc2)CC1)N1C(=O)N2CCc3c([nH]c4ccccc34)[C@@]2(C)C1=O
0.9%	-2%	7%	-3	Cc1nc2ccccn2c1C(=O)CSc1cccc(Cl)c1
0.9%	0%	1%	-7	COc1ccc(N2C(=O)CC(N3CCC(C(N)=O)CC3)C2=O)cc1 (stereo not given)
2.8%	x	-4%	-11	Cc1ccc(C(C)C)c2oc(=O)cc(-c3ccc(-c4ccc(C(F)(F)F)cc4)cc3)c12
1.9%	x	4%	x	CCOc1ccc2oc(C(=O)OCC(=O)N3CC(C)OC(C)C3)c(C)c2c1 (stereo not given)
u	x	-12%	x	O=C1CC[C@@H]2C[C@@]3(C[C@@H]4CCN1[C@H]24)Nc1cc([N+](=O)[O-])ccc1NC3=NCc1ccccc1
-5.0%	-1%	-3%	12	COc1ccc(S(=O)(=O)NN=C2CCCC2)cc1
-2.5%	-4%	12%	1	O=c1c2cc3c(cc2[nH]c(=S)n1Cc1ccco1)OCO3

Not all compounds are listed (hit frequency here may not be typical).
